From PubChem
Six1-Eya2 inh = inhibitors of human Six1/Eya2 interaction. activity change, % (concentration not given with the values). AlphaScreen GST-Six1/His-Eya2 binding, biochemical; stronger effect = lower value; control for the full effect not named in the record. AID 651725. Q15475+O00167. 360,000 tested, 0.56% active; in the data active = activity change below about -65%; inconclusive = about -30% to -65%; inactive = above about -30%; note: % is set by controls: 0 for no effect and ±100 for the full control effect
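Six1/Eya2 binding was read as AlphaScreen signal after compounds were pinned into GST-Six1 plus His-tagged Eya2 (5X stock 250/500 nM) in pH 8.0 Tris/NaCl/TCEP buffer, beads added, then incubated 1 h, 37 C, dark.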
D2 PAM = positive allosteric modulators of human D2 dopamine receptor; DiscoveRx D2 beta-arrestin cells, luminescence, 90 min; 100% = 57 uM dopamine signal; 360,000 tested, 0.23% active; AID 624464; potentiation, % (no concentration beside the values); P14416; active = potentiation of 50% or more; inconclusive = 30% to 50%; inactive = 30% or less;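 note: compound concentration not given in the record; tested on top of an EC20 dose of dopamine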
Target sequence (P14416 whole entry, looked up): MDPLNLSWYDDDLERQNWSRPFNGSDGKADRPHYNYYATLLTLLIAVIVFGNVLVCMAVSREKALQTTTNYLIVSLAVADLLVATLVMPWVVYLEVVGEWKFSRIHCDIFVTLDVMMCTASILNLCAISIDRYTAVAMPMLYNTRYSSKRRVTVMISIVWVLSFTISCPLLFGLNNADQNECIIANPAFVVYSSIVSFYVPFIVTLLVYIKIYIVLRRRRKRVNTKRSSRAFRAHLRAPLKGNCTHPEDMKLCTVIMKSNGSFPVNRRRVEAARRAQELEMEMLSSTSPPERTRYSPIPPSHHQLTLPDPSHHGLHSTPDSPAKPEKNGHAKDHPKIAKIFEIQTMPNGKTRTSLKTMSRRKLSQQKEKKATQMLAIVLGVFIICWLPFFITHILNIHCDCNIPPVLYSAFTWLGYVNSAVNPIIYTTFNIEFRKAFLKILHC
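D2 cells co-treated with compound plus 50 nM dopamine (EC20) for 90 min at 37 deg C to detect potentiation. Beta-arrestin recruitment was read as enzyme-fragment luminescence after 1 h at ambient temperature. Full response was set by 57 uM dopamine.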
CtBP-E1A inh = blocks the CtBP interaction with E1A | AID 651724 | 340,000 tested, 0.49% active | activity change, % (concentration not given with the values) | AlphaScreen GST-E1A/His-CtBP binding, 1536-well; stronger effect = lower value; control for the full effect not named in the record; in the data active means activity change below about -65%; inconclusive means about -30% to -65%; inactive means above about -30%; note: % is set by controls: 0 for no effect and ±100 for the full control effect
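Steps: dispense buffer (Tris pH 8.0, NaCl 300 mM, TCEP 1 mM, BSA, Tween 20); add 5X protein mix (GST-E1A, His-CtBP, 125 nM each); pin 23 nL compound; 2 h at 37 °C, dark; add 5X beads (50 ug/mL); 1 h; read.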
Sfp inh = blocks B. subtilis Sfp PPTase activity; Q9F4F7; Biochemical Sfp PPTase activity, qHTS; 310,000 tested, 3.5% active; Potency, µM, for inactives: max response, negative = inhibition, most hits filed as inhibitors; active = well fitted inhibition curve with a large enough effect; inconclusive = small, poorly fitted or top-dose-only effect, or another doubt; inactive = no such curve, though single readings can be large or run the other way;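 note: the enzyme is Sfp with the accession as filed and its product quenches rhodamine fluorescence; potency is the fitted concentration of half-maximal effect; 0% = enzyme reaction without inhibitor and -100% = no enzyme wells; top concentration of the series not given in the record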
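Reaction rates are the 30-min fluorescence difference (ex 525, em 598 nm) in wells containing 15 nM Sfp, 5 uM rhodamine-CoA and 12.5 uM BHQ-2-YbbR at pH 7.6 with 10 mM MgCl2.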
D2 agonist = human D2 receptor agonism in beta-arrestin assay. P14416. AID 624465. activation, % (test concentration not listed). 360,000 tested, 0.084% active. DiscoveRx PathHunter D2 beta-arrestin, luminescence, 90 min; 100% = 57 uM dopamine signal; in the data active = activation above about 40%; inconclusive = about 15% to 40%; inactive = below about 15%; note: compound concentration not given in the record; the text of the record calls up to 30% inactive
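DiscoveRx PathHunter D2 beta-arrestin cells (2,100/well) attached overnight, then compound-stimulated 90 min at 37 C in HBSS/10 mM HEPES/0.1% Tween-20 buffer; beta-galactosidase complementation read by luminescence after 1 h at ambient temperature. Dopamine 57 uM final (EC100) as control.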
TRPV1 potentiator = human TRPV1 potentiation; Q8NER1; TRPV1-expressing cells, Fluo-8 calcium influx, capsaicin EC20 potentiation; host cell line not named in the record; control for the full effect not named in the record; potentiation, % at 8.33 µM; 320,000 tested, 0.02% active; AID 540277; active means potentiation above 80%; inconclusive means 30% to 80%; inactive means below 30%; note: 0% is about no effect
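Fluo-8 calcium influx in TRPV1-expressing cells, kinetic read (ex 480/em 520 nm). Compound added and read 3 min for agonist activity, followed by capsaicin at EC20 final and 2 min further read for enhancement.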
PINK1 modulator = changes PINK1 expression; PINK1 immunofluorescence, high-content cytometry, 24 h; Potency, µM (titrated, usually from 76.6 µM), for the others: top-dose activation (PINK1 increase), actives largely listed as activators; 410,000 tested, 0.2% active; active = well fitted activation curve with a large enough effect; inconclusive = small, poorly fitted or top-dose-only effect; inactive = flat fitted curve, though single readings scatter; cell line not stated here;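 note: potency is the fitted concentration of half-maximal effect; % of control where 0% means no effect; nearly all actives have a fitted effect of over 65% in size; a mitochondrial uncoupler was the plate control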
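Decision-based qHTS: stable cells, 24 h exposure to five compound concentrations, CCCP as control. Fixed cells stained for PINK1 plus nuclear, mitochondrial and cell markers, cytometer read.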
Starred values were filed as active, the others as inactive; ? = inconclusive; nt = not tested or not shown; & = joins results of further samples; [ ] = another dose, or the depositor's remark. Rows are unselected; overall some 3.7% were active at least once.

SMILES	Six1-Eya2 inh	D2 PAM	CtBP-E1A inh	Sfp inh	D2 agonist	TRPV1 potentiator	PINK1 modulator
Clc1ccccc1CSc1nnc([C@@H]2CCCN2)o1	-4	-12	-5	14%	0.1	-9	1.0%
Cc1ccccc1Nc1nnc(-c2ccc(C(=O)NCCO)cc2)c2ccccc12	5	1	nt	-10%	2.3	?	-0.9%
CSc1ccc(CNC(=O)C2(C)CCCN2C)cc1 (stereo not given)	0	-3	1	nt	-4.2	nt	0.1%
Cc1ccc(Nc2ncc3c(n2)CC(C)(C)CC3=O)cc1	1	-13	4	7%	-3.2	-24	2.8%
O=C(Nc1ccc(NC(=O)c2ccccc2Cl)nc1)c1ccco1	-4	2	-1	15%	-1.7	10	-0.2%
CCc1ccc(NS(=O)(=O)c2ccc(C)c(C(=O)N3CCOCC3)c2)cc1	13	-1	9	4%	-3.6	-4	-1.2%
NS(=O)(=O)c1cccc(NC(=O)CSc2nnc3n2CCCCC3)c1	3	0	nt	nt	5.8	nt	1.2%
C=CCc1c(C)nc2cc(-c3ccccc3)[nH]n2c1=O	-15	-3	-6	7%	-3.5	8	1.5%
CCCCCOc1ccc(NC(=O)c2cc(SC)ccc2Cl)cc1	-3	-2	3	12%	-2.6	5	14µM*
CCC(=O)OC1c2ccccc2C(=O)N1Cc1ccccc1 (stereo not given)	-1	-4	1	6%	-3.3	24	3.6%
COc1ccccc1/C=C/C=N/N1CCN(Cc2cccc3ccccc23)CC1	?	-9	1	8%	-5.1	-8	1.9%
COc1cccc(NC(=O)c2nn(C)cc2Br)c1	1	-2	3	nt	-3.7	nt	0.8%
Cc1ccc(CS(=O)(=O)CCC(=O)N2CCOCC2)cc1	5	-2	3	4%	0.6	10	-5.4%[38.3 µM]
COc1ccc(S(=O)(=O)N2CCN(c3ccccc3OC)CC2)cc1OC	-2	3	-2	11%	-2.9	6	0.1%
COc1ccc(OC)c(C2C(C(C)=O)=C(O)C(=O)N2Cc2cccnc2)c1 (stereo not given)	2	-1	12	-10%	-1.9	4	-4.9%[38.3 µM]
COc1ccc(-c2nnc(SC(C)C(=O)NC3CC3)o2)cc1 (stereo not given)	-1	1	-13	nt	-0.5	6	0.4%
C/C=C(/C)C(=O)Nc1cccc(C2=NOC3(C2)C[C@H](C(N)=O)N(C(=O)c2ccc(Cl)cc2)C3)c1 (stereo not given in full)	0	-6	1	12%	0.7	-31	-0.5%
COc1ccccc1Cc1c(-c2ccc(C)cc2)nc2ccc(Br)cn12	-6	-5	4	nt	-4.0	nt	5.7%
COC(=O)c1[nH]c2ccc(C)cc2c1NC(=O)CN1CCN(c2ccc(F)cc2)CC1	-3	-9	-3	-24%	1.1	1	-1.6%
CCCC(=O)Nc1ccc(C(=O)NN2C(=O)c3ccccc3C2=O)cc1	-5	-8	-1	3%	-2.5	-6	0.0%
CCCOC(=O)c1ccc(OC(=O)c2ccco2)cc1	-1	-9	10	3%	-1.4	4	-0.4%[38.3 µM]
CC(C)(O)C#Cc1ccc(C(=O)N2CCCC(CCC(=O)NCc3ccccc3F)C2)cc1 (stereo not given)	3	-8	-3	7%	0.3	6	0.4%
Cc1ccsc1C(=O)NNC(=O)c1ccncc1	5	-26	-23	nt	-2.2	-8	1.0%
O=C(c1ccco1)N1CCN(c2ccc(N3CCCCC3)nn2)CC1	-7	-16	-9	nt	1.2	15	3.9%
Nc1nnn(CC(=O)N/N=C/c2ccc(O)cc2)n1	2	-4	-4	3%	-2.7	-27	-0.3%
O=C(c1cc2c(s1)CCCC2)N1CCN(CCO)CC1	10	-15	5	nt	-3.0	nt	-3.7%
Cc1ccc(NC(=O)NCc2cccn2C)cc1C	-1	-3	-11	9%	-5.1	-20	4.3%
C[C@H](CO)N1C[C@H](C)[C@@H](CN(C)C)Oc2c(NC(=O)c3ccncc3)cccc2C1=O	7	-5	6	nt	2.4	nt	1.0%
O=C(CSc1nnc(NC(=O)C2CC2)s1)NCc1ccc(F)cc1	5	-22	-6	1%	-4.6	-2	5.4%
O=C(COc1ccc2ccc(=O)oc2c1)Nc1ccc(N2CCCCC2)cc1	-23	-6	nt	nt	-2.9	22	7.6%
O=C(CNc1cccc2ccccc12)N/N=C/c1ccc[nH]1	-16	-8	-6	9%	-2.4	5	?
CC(=O)N1c2ccc(S(=O)(=O)N(C)CC(=O)N3CCCC3)cc2CC1C (stereo not given)	0	-7	3	8%	-2.2	14	-1.9%
CC(C)(C)Nc1nc(SCc2ccccc2)nc(N2CCOCC2)n1	0	-7	10	-6%	0.9	-9	8.5%
Cc1nn(-c2ccccc2)c2c1C(c1ccc([N+](=O)[O-])cc1)N1C(=N2)C(=O)Nc2ccccc21 (stereo not given)	-16	5	-18	-9%	-0.2	7	-1.4%
Cc1ccc(CS(=O)(=O)CCC(=O)NCCN(C)Cc2ccccc2)cc1	0	-7	3	1%	-3.6	6	-1.6%[38.3 µM]
Cc1ccc(C)c(N2CCN(C(=O)C3CCC3)CC2)c1	0	-1	5	-7%	5.5	-2	3.3%
CCc1cccc(OCC(=O)Nc2cc(S(=O)(=O)N3CCOCC3)ccc2N2CCCC2)c1	-8	9	-3	11%	-0.3	3	1.9%
O=C(CN(C(=O)CNS(=O)(=O)c1ccc(F)cc1)C1CCCC1)NCc1ccco1	1	-3	4	28%	-1.3	-6	1.0%
CCOC(=O)CCCCCC(=O)Nc1ccc2c(c1)C(=O)N([C@@H](C)CO)C[C@H](C)[C@H](CN(C)C(=O)c1ccccc1)OCCCC[C@H](C)O2	0	nt	4	nt	-1.4	nt	1.8%
CCOC(=O)c1sc(NC(C)=O)nc1-c1ccccc1	-3	-15	7	5%	-1.5	-4	1.9%[38.3 µM]
CCOc1ccccc1N(C(=O)Nc1cccc(Cl)c1)C1=NC(C)CS1 (stereo not given)	9	-8	3	-1%	-4.8	20	-0.4%
CC(CCc1ccccc1)NC(=O)CSc1nccc(=O)[nH]1 (stereo not given)	7	0	1	15%	-3.3	-3	-0.4%
Cc1ccc(S(=O)(=O)N2CCN(CC(=O)N/N=C\c3ccccn3)CC2)cc1	2	-3	-4	-25%	-2.0	-10	0.2%
CN(C)CCOC(=O)c1cccc(Br)c1	-2	-52	0	11%	-1.3	-5	-2.0%
Cc1ccc(-n2c(-c3ccc(Br)cc3)n[nH]c2=S)c(C)c1	-13	-13	-1	nt	-3.4	nt	2.7%
Cc1nc(-c2ccccc2)sc1C1(C)CC(c2ccc(C#N)cc2)=NO1 (stereo not given)	-1	-6	-3	9%	1.3	15	1.8%
COc1cccc(C2C(C(N)=O)=C(C)Nc3nc(-c4ccccc4Cl)nn32)c1 (stereo not given)	4	-1&2	7	-3%	-1.2	6	2.8%
CC[C@H](C)C(C(=O)N1CCN(C(=O)OC(C)(C)C)CC1)n1cc(C(CC(C)C)NC(=O)OC(C)(C)C)nn1 (stereo not given in full)	2	8	8	-22%	1.4	8	1.2%
O=C(CSc1ncn[nH]1)c1ccc(OC(F)F)cc1	0	-8	8	2%	-3.0	1	-1.2%
Cc1ccc(CCNC(=O)C2CCN(S(=O)(=O)c3ccc4c(c3)NC(=O)C(C)S4)CC2)cc1 (stereo not given)	0	6	-8	9%	3.3	4	0.2%
Cc1cc2oc(=O)c(CC(=O)O)c(C)c2c2occ(C(C)(C)C)c12	-9	-1	1	-3%	-3.2	-3	0.4%
COc1ccc(NC(=O)C(CC(=O)O)Cc2ccccc2)cc1 (stereo not given)	7	-4	3	-6%	-4.9	-12	19%[38.3 µM]
O=C(N/N=C/c1ccc(-c2ccc([N+](=O)[O-])cc2)o1)c1cccnc1	-11	1	-2	-2%	2.7	23	?
O=[N+]([O-])c1ccccc1Nc1cccc(F)c1	?	1	?	nt	-2.2	nt	1.2%
CC1=CCC2C(=O)N(c3cc(C)on3)C(=O)C2C1 (stereo not given)	7	-7	3	-4%	0.1	-33	-1.0%
CC1=C(C(=O)N2CCCCCC2)CC(CC(=O)NC2CCCCC2)C(=O)N1Cc1ccc(C(C)(C)C)cc1 (stereo not given)	1	-7	-1	nt	-6.7	nt	3.4%
O=C(c1cc(Br)c[nH]1)N1CCSCC1	-4	-13	4	7%	1.6	2	-0.4%
Cc1cnn(-c2ccc3nnc(-c4ccc(Br)cc4)n3n2)c1	2	-3	-9	27%	-2.4	1	-1.2%
NC[C@H]1O[C@@H](n2ccc(N)nc2=O)[C@H](O)[C@@H]1O	11	-7	1	nt	-3.7	nt	3.8%
O=C(NCc1cccnc1)c1cc(C2CCCCN2C(=O)OCCF)on1 (stereo not given)	3	-1	5	nt	-5.2	nt	-0.6%
Later entries:
SMILES	Six1-Eya2 inh	D2 PAM	CtBP-E1A inh	Sfp inh	D2 agonist	TRPV1 potentiator	PINK1 modulator
CS(=O)(=O)c1ccc(Cl)c(NC(=O)COC(=O)CNC(=O)c2ccc(Br)o2)c1	21	-22	0	0%	-1.6	-20	0.7%
CCOC(=O)C1=C(C)Nc2ncnn2C1c1ccccc1F (stereo not given)	8	-2	-6	6%	-0.8	-4	0.9%
CCn1nnnc1SCC(=O)Nc1cccc(NC(C)=O)c1	3	-10	-3	-2%	-1.4	16	-4.1%
CC(C)c1ccc(Nc2nc(N3CCOCC3)nc(N3CCOCC3)n2)cc1	0	-14	-3	nt	-2.5	nt	0.7%
CC(C)(C)c1ccc2c(c1)OCC(C(=O)O)O2 (stereo not given)	4	2	5	14%	-4.0	nt	-1.0%[38.3 µM]
Nc1nonc1-n1nnc(C(=O)N/N=C/c2ccccc2F)c1CN1CCOCC1	4	-2	8	nt	0.3	nt	1.2%
Cc1ccc(F)cc1NC(=O)CCOc1ccccc1	3	-6	15	18%	0.3	-6	-0.9%
COc1ccc(C(=O)COc2ccc(C(C)=O)cc2OC)cc1OC	2	-2	-1	nt	0.8	nt	-0.2%

In the list so far, these have a nitro group on carbon.
SMILES	Six1-Eya2 inh	D2 PAM	CtBP-E1A inh	Sfp inh	D2 agonist	TRPV1 potentiator	PINK1 modulator
Cc1nn(-c2ccccc2)c2c1C(c1ccc([N+](=O)[O-])cc1)N1C(=N2)C(=O)Nc2ccccc21 (stereo not given)	-16	5	-18	-9%	-0.2	7	-1.4%
O=C(N/N=C/c1ccc(-c2ccc([N+](=O)[O-])cc2)o1)c1cccnc1	-11	1	-2	-2%	2.7	23	?
O=[N+]([O-])c1ccccc1Nc1cccc(F)c1	?	1	?	nt	-2.2	nt	1.2%
